Screening results as filed in PubChem BioAssay.
Marburg entry inh – qHTS for inhibitors of binding or entry into cells for Marburg Virus; hit rate 1.8% among 300,000; Potency, µM (top dose mostly 37.8 µM), for the others: at the top dose activity change, negative = inhibition, actives largely listed as inhibitors; Marburg virus pseudotyped entry inhibition, cell reporter; control for the full effect not named in the record; about a third of the inactives were read at about 46 µM; active = well fitted inhibition curve with a large enough effect; inconclusive = small, poorly fitted or top-dose-only effect, or effect the other way; inactive = flat fitted curve, though single readings scatter; tested in HEK293 cells; about a fifth of its hits are not listed in these tables; further: on the % scale 0 is the no-effect control and ±100 the full control effect; luciferase read-out
NS1 function inh – qHTS Assay for Inhibitors of Influenza NS1 Protein Function | S. cerevisiae slowed by influenza A NS1, growth recovery by OD600 | Potency, µM (doses to about 46.1 µM), for inactives: top-dose activity, positive = more growth | hit rate 0.4% among 270,000; active means well fitted rising curve with a large enough effect; inconclusive means small, poorly fitted or top-dose-only effect; inactive means no such curve, though single readings can be large or run the other way; further: nearly all actives have a fitted effect of over 50% in size
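In this qHTS, NS1 from influenza A is expressed in budding yeast, where it slows growth. Cells are switched from glucose to 2% galactose medium (pH 6.0, -URA), treated with compound, and growth recovery is read at OD600.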
Cruzain noTriton – qHTS Assay for Promiscuous and Specific Inhibitors of Cruzain (without detergent); Cruzipain (Trypanosoma cruzi), P25779; purified cruzain, Z-FR-AMC fluorescence, no detergent; Potency, µM, for the others: max response, negative = inhibition, most hits filed as inhibitors; hit rate 2.3% among 200,000; AID 1476, 2009;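 further: plate controls were enzyme without inhibitor for no effect and buffer without enzyme for full effect; nearly all actives have a fitted effect of over 40% in size; top concentration of the series not given in the record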
Target sequence (P25779 123-467 limits assumed): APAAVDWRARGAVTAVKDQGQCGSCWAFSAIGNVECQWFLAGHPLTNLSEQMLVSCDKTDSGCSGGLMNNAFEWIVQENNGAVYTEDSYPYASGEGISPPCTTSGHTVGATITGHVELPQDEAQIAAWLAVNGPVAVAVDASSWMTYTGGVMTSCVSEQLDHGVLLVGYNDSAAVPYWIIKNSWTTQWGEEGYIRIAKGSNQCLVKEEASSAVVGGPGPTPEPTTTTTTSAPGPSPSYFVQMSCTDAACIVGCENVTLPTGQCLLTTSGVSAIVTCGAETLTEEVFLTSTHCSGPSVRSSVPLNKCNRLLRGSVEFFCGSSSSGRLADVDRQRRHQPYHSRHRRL
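Purified cruzain at 1.5 nM, pre-incubated 15 min with compound at room temperature in 100 mM sodium acetate pH 5.5, 5 mM DTT, 0.00005% Triton X-100. Reaction started with 2 uM Z-FR-AMC; AMC fluorescence increase over 60 s gives rate.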
Lassa entry inh – qHTS for Inhibitors of binding or entry into cells for Lassa Virus; hit rate 1.2% among 300,000; Lassa virus pseudotype entry inhibition, cell reporter; control for the full effect not named in the record; AID 540256, 2011; Potency, µM (highest dose often 37.9 µM), for inactives: top-dose activity change, negative = inhibition, most hits filed as inhibitors; active means well fitted inhibition curve with a large enough effect; inconclusive means small, poorly fitted or top-dose-only effect, or effect the other way; inactive means flat fitted curve, though single readings scatter; tested in HEK293 cells; further: on the % scale 0 is the no-effect control and ±100 the full control effect; nearly all actives have a fitted effect of over 50% in size; luciferase read-out
2A StopGo – High Throughput Screening for Foot and Mouth Disease Virus Antivirals | hit rate 1.2% among 410,000 | Potency, µM (highest dose often 57.9 µM), without a hit: at the top dose signal change, negative = less light | human cells with a luciferase reporter of 2A StopGo recoding; control for the full effect not named in the record; active = well fitted falling curve with a large enough effect; inconclusive = small, poorly fitted or top-dose-only effect; inactive = no such curve, though single readings can be large or run the other way; tested in HEK293T cells; further: on the % scale 0 is the no-effect control and ±100 the full control effect; nearly all actives have a fitted effect of over 45% in size; luciferase light after 4 h
SARS PLpro yeast – qHTS of Yeast-based Assay for SARS-CoV PLP. S. cerevisiae expressing SARS-CoV PLpro, growth rescue; control for the full effect not named in the record. Potency, µM (titrated, usually from 32.9 µM), for the others: at the top dose activity, positive = growth rescue. hit rate 0.19% among 330,000; active means well fitted rising curve with a large enough effect; inconclusive means small, poorly fitted or top-dose-only effect; inactive means no such curve, though single readings can be large or run the other way; further: 0% is about no effect; nearly all actives have a fitted effect of over 55% in size; growth read by luminescence after 48 h
RE007 growth inh – qHTS Assay for Inhibitors of the HIV-1 protein Vpr; S. pombe RE007 Vpr strain, BacTiter-Glo ATP luminescence, 24 h; control for the full effect not named in the record; Potency, µM (doses to about 92.2 µM), for inactives: at the top dose activity change, negative = less growth; hit rate 0.21% among 360,000; active = well fitted falling curve with a large enough effect; inconclusive = small, poorly fitted or top-dose-only effect; inactive = no such curve, though single readings can be large or run the other way;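 further: on the % scale 0 is the no-effect control and ±100 the full control effect; nearly all actives have a fitted effect of over 50% in size; the assay follows cell death caused by Vpr and the record does not say whether a fall means rescue or toxicity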
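Fission yeast RE007 carrying one integrated HIV-1 vpr copy, seeded at OD 0.01 in PMG+AL medium with 23 nL pinned compound. Grown 24 h at 30 degrees; viability read by BacTiter-Glo luminescence after 5 min.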
Cruzain inh Det – qHTS Assay for Promiscuous and Specific Inhibitors of Cruzain (with detergent); hit rate 0.43% among 200,000; Potency, µM, for the others: max response, negative = inhibition, most hits filed as inhibitors; Cruzipain (Trypanosoma cruzi), P25779; purified cruzain, Z-FR-AMC fluorescence, 0.01% Triton;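 further: plate controls were neutral wells for no effect and buffer without enzyme for full effect; nearly all actives have a fitted effect of over 40% in size; top concentration of the series not given in the record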
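Steps: dispense cruzain (1.5 nM final) in acetate buffer pH 5.5 with DTT and 0.01% Triton X-100; pin-transfer compounds; incubate 15 min RT; add Z-FR-AMC (2 uM final); read fluorescence every 30 s, using the 60 s intensity change.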
Active calls of the source: *; ? = inconclusive; · = not tested or not shown; & = joins results of further samples; [ ] = another dose, or the depositor's remark. Unless noted, the call rests on the fitted dose curve; in most records, active means well fitted curve in the direction sought with a large enough effect; inconclusive means small, poorly fitted or top-dose-only effect, or another doubt; inactive means no such curve, though single readings can be large; an effect the other way counts as inactive or inconclusive. Potency means the concentration at half of the fitted maximal effect. Rows are unselected, and some 4.8% of all compounds hit somewhere here.

SMILES | Marburg entry inh | NS1 function inh | Cruzain noTriton | Lassa entry inh | 2A StopGo | SARS PLpro yeast | RE007 growth inh | Cruzain inh Det
Cc1cc(NC(=O)CSc2cn(CCNC(=O)c3ccc(Cl)cc3)c3ccccc23)no1 | 0.0% | ? | 4.7% | · | ? | ? | 5.2% | -1.2%
COC(=O)CN1C(=O)[C@H]2[C@@H](/C=C/c3ccccc3)N3C(=O)CN(Cc4ccccc4)C(=O)[C@@]3(C)[C@H]2C1=O | · | -4.7% | · | · | -16.3% | -12.2% | 2.1% | ·
Cc1cc(C(F)F)n2ncc(C(=O)NC3CCCCCC3)c2n1 | 3.3% | -38.7% | -1.2% | -18.5% | -14.6% | 2.9% | 2.2% | 1.0%
CCN(CC)CC(=O)Nc1ccc2c(c1)N(C(=O)CN(CC)CC)c1ccccc1CC2 | 8.2µM* | 2.7% | 3.3% | ? | · | 0.4% | 1.4% | 3.2%
Cc1nn(-c2ccccc2)c(C)c1C(=O)NCCc1ccc(Cl)cc1 | 5.5%[46.1 µM] | -8.2% | · | -1.2%[46.1 µM] | -9.7% | -5.0% | -11.7% | ·
Cc1ccc(N2CCN(C(=O)c3cn(C)c4ccc(S(=O)(=O)N5CCCC5)cc4c3=O)CC2C)cc1 (stereo not given) | -19.5%[46.1 µM] | · | ? | -9.8%[46.1 µM] | 12.4% | · | · | -3.8%
COc1ccccc1NC(=O)C1=C(C)Nc2nc(SC)nn2C1c1ccccc1Cl (stereo not given) | 3.1%[46.1 µM] | · | -1.8% | 1.3%[46.1 µM] | -13.0% | · | · | -2.9%
COc1ccc(C2/C(=C(\O)c3ccc4c(c3)OCCO4)C(=O)C(=O)N2Cc2cccnc2)cc1 (stereo not given) | · | 18.9% | · | · | -1.4% | 10.5% | -13.1% | ·
c1ccc2c(c1)[nH]c1c(N3CCN(C4CCCCC4)CC3)ncnc12 | ? | -109.5% | 3.1% | 9.4% | -23.2% | -12.7% | 15.6% | -3.5%
CN(C(=O)/C=C/c1ccc(F)cc1)C1CCCCC1 | -29.2%[46.1 µM] | · | · | ? | 22.1% | · | -24.6% | ·
Cc1ccc(S(=O)(=O)NCCC(=O)NNC(=O)COc2ccc(Br)cc2)cc1C | 2.0%[46.1 µM] | · | · | -8.1% | -2.3% | 4.0% | -2.7% | ·
CC(O)CN=c1cc(-c2ccccc2)oc2ccc(Cl)cc12 (stereo not given) | ? | -13.8% | -3.2% | -0.8% | 32.7%[activator] | -16.2% | ? | -5.2%
CCC(CC)c1nnc(NC(=O)COc2ccc3c(c2)OCO3)s1 | ? | -6.5% | · | -20.2%[46.1 µM] | -8.3% | 7.3% | -18.6% | ·
CC(C)c1ccc(NC2CCCN(C(=O)c3ccnn3C)C2)cc1 (stereo not given) | -3.2% | -2.5% | · | 0.7% | -27.5% | 5.1% | -1.6% | ·
COCCCNC(=S)Nc1ccccc1[N+](=O)[O-] | 0.0%[46.1 µM] | 6.2% | · | 7.8% | 22.4% | 0.4% | -22.0% | ·
COc1ccc(OC(C)C(=O)NC(C)c2ccccc2)cc1 (stereo not given) | · | -6.1% | · | · | -0.5% | -4.8% | -1.8% | ·
CN(C)c1cccc(C(=O)OCC(=O)Nc2ccccc2Sc2ccccc2)c1 | 3.0% | 2.6% | ? | -6.7% | 0.0% | 4.5% | -10.4% | ?
O=C(Nc1ccc(NS(=O)(=O)c2ccccc2)cc1)c1ccc(Cl)cc1 | -1.4% | 1.2% | · | ? | 2.5% | 1.0% | 0.9% | ·
COc1cc(C(C(=O)NC2CCCC2)N(C(=O)c2snc(C(N)=O)c2N)C2CCCC2)cc(OC)c1OC (stereo not given) | -5.2%[46.1 µM] | -4.2% | · | 13.7%[46.1 µM] | 1.1% | 0.4% | 4.6% | ·
Cc1noc(C)c1CSc1ccccc1C(=O)O | 3.1%[46.1 µM] | 25.8% | · | 4.2% | 26.5% | 4.4% | 7.6% | ·

Quoted from the results shown, 2 compounds:
SMILES | Marburg entry inh | NS1 function inh | Cruzain noTriton | Lassa entry inh | 2A StopGo | SARS PLpro yeast | RE007 growth inh | Cruzain inh Det
Cc1cc(NC(=O)CSc2cn(CCNC(=O)c3ccc(Cl)cc3)c3ccccc23)no1 | 0.0% | ? | 4.7% | · | ? | ? | 5.2% | -1.2%
COC(=O)CN1C(=O)[C@H]2[C@@H](/C=C/c3ccccc3)N3C(=O)CN(Cc4ccccc4)C(=O)[C@@]3(C)[C@H]2C1=O | · | -4.7% | · | · | -16.3% | -12.2% | 2.1% | ·

Part of the list above, as a markdown table.
| SMILES | Marburg entry inh | NS1 function inh | Cruzain noTriton | Lassa entry inh | 2A StopGo | SARS PLpro yeast | RE007 growth inh | Cruzain inh Det |
| --- | --- | --- | --- | --- | --- | --- | --- | --- |
| COc1ccccc1NC(=O)C1=C(C)Nc2nc(SC)nn2C1c1ccccc1Cl (stereo not given) | 3.1%[46.1 µM] | · | -1.8% | 1.3%[46.1 µM] | -13.0% | · | · | -2.9% |
| COc1ccc(C2/C(=C(\O)c3ccc4c(c3)OCCO4)C(=O)C(=O)N2Cc2cccnc2)cc1 (stereo not given) | · | 18.9% | · | · | -1.4% | 10.5% | -13.1% | · |

Next records:
SMILES | Marburg entry inh | NS1 function inh | Cruzain noTriton | Lassa entry inh | 2A StopGo | SARS PLpro yeast | RE007 growth inh | Cruzain inh Det
CSc1nsc(NC(=O)OCc2ccc(Cl)cc2)n1 | · | -90.7% | · | · | 2.6% | -12.3% | ? | ·
COc1cc(NC(=O)CN2CCC(C(N)=O)(N3CCCCC3)CC2)c(OC)cc1Cl | ? | 1.0% | · | 25.2% | -16.7% | 0.1% | -11.2% | ·
CC(O)(P(=O)(O)O)P(=O)(O)O | · | · | -8.3%&0.3% | · | -17.1% | · | 3.9%[18.4 µM] | -1.3%&2.8%
COc1ccc(CNC(=O)CCCn2nc(C)c3c(C)n(-c4ccccc4)nc3c2=O)cc1 | · | -1.1% | -9.9% | ? | -3.0%&-15.1% | 0.8% | 2.3% | -0.5%
O=c1cc(-c2ccccc2)oc2cc(OCc3ccccc3)cc(O)c12 | -6.1%[46.1 µM] | 2.1% | · | -5.4% | -4.7% | 2.3% | -10.7% | ·
COc1ccc(/C=C\c2onc(C)c2S(=O)(=O)N2CCC(C(=O)Nc3cccc(OC)c3)CC2)cc1 | ? | · | ? | ? | 14.1µM* | · | · | -0.9%
CSc1nc2ncc(C#N)cn2n1 | 1.9%[46.1 µM] | · | · | ? | -9.2% | -4.9% | -12.2% | ·
CCOC(=O)NC(=O)/C(C#N)=N\Nc1ccc(Cl)cc1 | 5.5%[46.1 µM] | -2.9% | 5.01µM* | 10.5% | -2.1% | -1.2% | 20.7% | -2.0%
O=C(Cc1ccc(Cl)cc1)NNC(=O)c1ccco1 | ? | -2.3% | · | -3.9%[46.1 µM] | 7.2% | 1.5% | 6.9% | ·
NC(=S)Nc1cccc(F)c1 | -6.5% | 1.8% | · | 9.3% | 5.3% | 1.6% | -14.6% | ·
CC(C(=O)N1CCN(Cc2ccc3c(c2)OCO3)CC1)c1ccc([N+](=O)[O-])cc1 (stereo not given) | ? | · | · | 12.9% | ? | 0.8% | 3.9% | ·
C#CC1CN(Cc2ccccc2)CC(C#C)N1C (stereo not given) | 3.3% | 9.2% | 1.4% | -5.7% | 3.7% | 2.8% | 15.0% | 3.6%
CC(NC(=O)CCc1nnc(C2(c3ccc(Cl)cc3)CCC2)o1)C1CC1 (stereo not given) | -19.5%[46.1 µM] | 1.6% | · | -0.6%[46.1 µM] | 16.5% | -0.4% | -15.4% | ·
COc1ccc(N(CC(=O)NCCSCc2ccco2)S(=O)(=O)c2ccccc2)cc1Cl | ? | 10.7% | · | ? | -2.6% | -3.4% | 7.0% | ·

In a second layout: entries from further up.
> CCOC(=O)NC(=O)/C(C#N)=N\Nc1ccc(Cl)cc1
  Marburg entry inh: 5.5%[46.1 µM]	NS1 function inh: -2.9%	Cruzain noTriton: 5.01µM*	Lassa entry inh: 10.5%	2A StopGo: -2.1%	SARS PLpro yeast: -1.2%	RE007 growth inh: 20.7%	Cruzain inh Det: -2.0%
> NC(=S)Nc1cccc(F)c1
  Marburg entry inh: -6.5%	NS1 function inh: 1.8%	Cruzain noTriton: ·	Lassa entry inh: 9.3%	2A StopGo: 5.3%	SARS PLpro yeast: 1.6%	RE007 growth inh: -14.6%	Cruzain inh Det: ·
> O=C(Cc1ccc(Cl)cc1)NNC(=O)c1ccco1
  Marburg entry inh: ?	NS1 function inh: -2.3%	Cruzain noTriton: ·	Lassa entry inh: -3.9%[46.1 µM]	2A StopGo: 7.2%	SARS PLpro yeast: 1.5%	RE007 growth inh: 6.9%	Cruzain inh Det: ·
> O=c1cc(-c2ccccc2)oc2cc(OCc3ccccc3)cc(O)c12
  Marburg entry inh: -6.1%[46.1 µM]	NS1 function inh: 2.1%	Cruzain noTriton: ·	Lassa entry inh: -5.4%	2A StopGo: -4.7%	SARS PLpro yeast: 2.3%	RE007 growth inh: -10.7%	Cruzain inh Det: ·
